Screens as filed in PubChem.
SARS PLpro yeast = inhibitors of SARS-CoV papain-like protease in yeast | 330,000 compounds, 0.19% hits | Potency, µM (highest dose often 32.9 µM), for inactives: top-dose activity, positive = growth rescue | S. cerevisiae expressing SARS-CoV PLpro, growth rescue; control for the full effect not named in the record; further: 0% is about no effect; nearly all actives have a fitted effect of over 55% in size; growth read by luminescence after 48 h
LASV entry inh = blocks Lassa virus binding to or entry into cells | Lassa virus pseudotype entry inhibition, cell reporter; control for the full effect not named in the record | Potency, µM (series often up to 37.9 µM), for the others: top-dose activity change, negative = inhibition, most hits filed as inhibitors | AID 540256 | 300,000 compounds, 1.2% hits; active means well fitted inhibition curve with a large enough effect; inconclusive means small, poorly fitted or top-dose-only effect, or effect the other way; inactive means flat fitted curve, though single readings scatter; tested in HEK293 cells; further: on the % scale 0 is the no-effect control and ±100 the full control effect; nearly all actives have a fitted effect of over 50% in size; luciferase read-out
Cruzain inh Det = inhibitors of Trypanosoma cruzi cruzain with detergent; 200,000 compounds, 0.43% hits; purified cruzain, Z-FR-AMC fluorescence, 0.01% Triton; Potency, µM, for inactives: max response, negative = inhibition, most hits filed as inhibitors; active means well fitted curve in the direction sought with a large enough effect; inconclusive means small, poorly fitted or top-dose-only effect, or another doubt; inactive means no such curve, though single readings can be large; an effect the other way counts as inactive or inconclusive;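 further: plate controls were neutral wells for no effect and buffer without enzyme for full effect; nearly all actives have a fitted effect of over 40% in size; top concentration of the series not given in the record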
Target sequence (P25779 123-467 limits assumed): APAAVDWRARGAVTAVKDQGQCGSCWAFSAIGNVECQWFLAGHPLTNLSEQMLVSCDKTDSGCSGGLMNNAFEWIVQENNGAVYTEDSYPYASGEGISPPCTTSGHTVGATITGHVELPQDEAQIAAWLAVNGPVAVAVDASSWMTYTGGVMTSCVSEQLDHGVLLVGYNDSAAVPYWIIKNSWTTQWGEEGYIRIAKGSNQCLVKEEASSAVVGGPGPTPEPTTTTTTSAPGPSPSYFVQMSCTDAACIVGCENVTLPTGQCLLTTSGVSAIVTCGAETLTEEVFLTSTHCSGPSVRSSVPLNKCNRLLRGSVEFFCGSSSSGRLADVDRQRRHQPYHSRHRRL
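15 min RT preincubation of 1.5 nM cruzain with compound, then 2 uM Z-FR-AMC added; kinetic AMC fluorescence, 60 s delta. Triton X-100 0.01%, pH 5.5.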
Marburg entry inh = blocks Marburg virus binding to or entry into cells | Marburg virus pseudotyped entry inhibition, cell reporter; control for the full effect not named in the record; about a third of the inactives were read at about 46 µM | Potency, µM (top dose mostly 37.8 µM), without a hit: at the top dose activity change, negative = inhibition, actives largely listed as inhibitors | 300,000 compounds, 1.8% hits; active = well fitted inhibition curve with a large enough effect; inconclusive = small, poorly fitted or top-dose-only effect, or effect the other way; inactive = flat fitted curve, though single readings scatter; tested in HEK293 cells; about a fifth of its hits are not listed in these tables; further: on the % scale 0 is the no-effect control and ±100 the full control effect; luciferase read-out
RE007 growth inh = less growth of the S. pombe RE007 Vpr strain; S. pombe RE007 Vpr strain, BacTiter-Glo ATP luminescence, 24 h; control for the full effect not named in the record; Potency, µM (highest dose often 92.2 µM), for inactives: top-dose activity change, negative = less growth; 360,000 compounds, 0.21% hits; active = well fitted falling curve with a large enough effect; inconclusive = small, poorly fitted or top-dose-only effect; inactive = no such curve, though single readings can be large or run the other way;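 further: on the % scale 0 is the no-effect control and ±100 the full control effect; nearly all actives have a fitted effect of over 50% in size; the assay follows cell death caused by Vpr and the record does not say whether a fall means rescue or toxicity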
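Fission yeast RE007 carrying one integrated HIV-1 vpr copy, seeded at OD 0.01 in PMG+AL medium with 23 nL pinned compound. Grown 24 h at 30 degrees; viability read by BacTiter-Glo luminescence after 5 min.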
Cruzain inh noDet = cruzain (T. cruzi) inhibition without detergent; P25779; purified cruzain, Z-FR-AMC fluorescence, no detergent; Potency, µM, without a hit: max response, negative = inhibition, usual class: inhibitors; 200,000 compounds, 2.3% hits; active means well fitted curve in the direction sought with a large enough effect; inconclusive means small, poorly fitted or top-dose-only effect, or another doubt; inactive means no such curve, though single readings can be large; an effect the other way counts as inactive or inconclusive;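 further: plate controls were enzyme without inhibitor for no effect and buffer without enzyme for full effect; nearly all actives have a fitted effect of over 40% in size; top concentration of the series not given in the record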
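Detergent-free condition (0.00005% Triton X-100) in acetate buffer pH 5.5 with DTT. 1.5 nM enzyme and compound were pre-mixed 15 min, then 2 uM Z-FR-AMC substrate added; reaction progress from fluorescence change between first and third reads (60 s).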
NS1 inh = influenza NS1 inhibition; S. cerevisiae slowed by influenza A NS1, growth recovery by OD600; 270,000 compounds, 0.4% hits; Potency, µM (series often up to 46.1 µM), without a hit: at the highest dose activity, positive = more growth; AID 2326; further: actives are rising curves; nearly all actives have a fitted effect of over 50% in size
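Compounds were scored for reversing the slow growth caused by influenza A NS1 in S. cerevisiae, measured by optical density at 600 nm. Assay medium contained 2% galactose at pH 6.0; NS1-free yeast of the same strain were the positive control.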
2A StopGo = lowers the luciferase signal of an FMDV 2A StopGo reporter | human cells with a luciferase reporter of 2A StopGo recoding; control for the full effect not named in the record | Potency, µM (doses to about 57.9 µM), inactives show top-dose signal change, negative = less light | 410,000 compounds, 1.2% hits | AID 1159524; active = well fitted falling curve with a large enough effect; inconclusive = small, poorly fitted or top-dose-only effect; inactive = no such curve, though single readings can be large or run the other way; tested in HEK293T cells; further: on the % scale 0 is the no-effect control and ±100 the full control effect; nearly all actives have a fitted effect of over 45% in size; luciferase light after 4 h
* marks the source's active call; other numbers are inactive results; u = inconclusive; x = not tested or not shown; & = joins results of further samples; [ ] = remark or other dose. Unless noted, the call rests on the fitted dose curve; in most records, active means well fitted rising curve with a large enough effect; inconclusive means small, poorly fitted or top-dose-only effect; inactive means no such curve, though single readings can be large or run the other way. Potency means the concentration at half of the fitted maximal effect. Not a hit list. Share with any hit: about 4.5%.

The line under a structure holds: SARS PLpro yeast | LASV entry inh | Cruzain inh Det | Marburg entry inh | RE007 growth inh | Cruzain inh noDet | NS1 inh | 2A StopGo
Cc1ccccc1N1CC(C(=O)N2CCc3ccccc32)CC1=O (centres undefined)
 : -2% | 4% | x | 17% | 19% | x | x | -3%
Cc1noc(C)c1CSc1nnc(-c2ccccc2F)n1CCc1ccccc1
 : -2% | -23% | 4.6% | u | 11% | 5% | -3% | -29%
NC(CC(=O)O)c1ccc(Br)cc1 (centres undefined)
 : -4% | 1% | 2.3% | -11% | 11% | -10% | 9% | -14%
Cc1ccc(C)c(N(C)C(=O)c2coc(=O)c3ccccc23)c1
 : 2% | -9% | 3.8% | -17% | 3% | -1% | -7% | -21%
Cc1ccc(OCC(=O)Nc2nc(-c3ccccn3)cs2)c(C)c1
 : 7% | 18% | x | u | u | x | x | 23%
CC(C)(C)OC(=O)N1CCc2nc(N3CCN(c4ncccn4)CC3)ncc2C1
 : x | u | -1.8% | 14%[46.1 µM] | x | -3% | x | u
Cc1cccc(N2CCN(C(=O)COc3cc4oc(=O)cc(C)c4cc3Cl)CC2)c1C
 : 1% | u | x | -5%[46.1 µM] | 3% | x | -4% | -6%
CC1CCN(c2oc(-c3ccc(F)cc3)nc2C#N)CC1
 : -3% | -16% | x | -5%[46.1 µM] | 4% | x | -11% | 30%[activator]
COc1ccc(CCNC(=O)c2cc3c(s2)-c2c(C)cccc2OC3)c(OC)c1
 : x | x | -11% | -22%[46.1 µM] | x | u | x | -13%
Nc1[nH]nc2nc3ccccc3cc12
 : -1% | 20% | x | u | 1% | x | x | 8%
O=S(=O)(c1cc(F)ccc1F)N1CCC2(CC1)OCCN2S(=O)(=O)c1ccccc1
 : -5% | 7% | x | -7%[46.1 µM] | 22% | x | x | 2%
CCOC(=O)CC(=O)CSc1nnc(Cn2c(=O)sc3ccccc32)n1C
 : -3% | 3% | 1.9% | 24% | -2% | 0% | 21% | 6%
CC(C)CCOc1ccc(C2CC(=O)N(C)C2=O)cc1 (centres undefined)
 : -1% | x | x | x | 1% | x | 6% | 0%
COC(=O)c1nn(-c2ccc(C)cc2)c2nnc(Cc3ccccc3)c(=O)n12
 : 2% | 15% | -2.8% | -5% | -1% | 8% | -3% | -15%
O=C1C2C3c4ccccc4C(c4ccccc43)C2C(=O)N1c1cccc2cccnc12 (centres undefined)
 : 3% | u | 1.8% | u | 11% | u | -5% | -26%
Cc1ccc(-n2ncc(C(=O)N3CCN(c4ccc(Cl)cc4)CC3)c2C2CCN(C(=O)OC(C)(C)C)CC2)c(C)c1
 : x | u | -0.5% | x | x | -12% | x | u
CCCOc1ccc(C2/C(=C(\O)c3c(C)[nH]c(C(=O)OC)c3C)C(=O)C(=O)N2CCN(C)C)cc1 (centres undefined)
 : -3% | -3% | -5.4% | -1% | -14% | -21% | u | -23%
O=C(O)CNc1nc(-c2ccccc2)c2cc([N+](=O)[O-])ccc2n1
 : -2% | -4% | -3.0% | -2% | 5% | -4% | -8% | -18%
CN1CCN(C(=O)c2ccc3c(c2)NC(=O)C(N2CCOCC2)S3)CC1 (centres undefined)
 : 0% | 0% | 5.5% | 2% | -4% | 0% | -2% | -13%
COc1ccc(OC)c2c(C)cc(N3CCCCCC3)nc12
 : -2% | u | x | u | u | x | -33% | -20%
C/C(CC(=O)Nc1ccc2c(c1)OCCO2)=N\NC(=O)Cc1ccccc1
 : 1% | 15%[46.1 µM] | x | 9%[46.1 µM] | -12% | x | 1% | 12%
O=C(c1ccc(-c2ccccc2Cl)o1)N1CCN(S(=O)(=O)c2cccs2)CC1
 : 2% | -3% | x | u | -14% | x | x | -7%
CCc1nc(SCC(=O)Nc2ccc([N+](=O)[O-])cc2)n[nH]1
 : 0% | -13%[46.1 µM] | x | -15%[46.1 µM] | 0% | x | 1% | -28%
C=C(C)Cc1c(C)c(C#N)c2[nH]c3ccccc3n2c1=O
 : -12% | u | x | 13µM* | -2% | x | -76% | u
O=C(C1CCCN(S(=O)(=O)c2ccc(Br)s2)C1)N1CCCCCC1 (centres undefined)
 : x | -13% | 3.3% | -10% | -3% | 9% | -32% | u
CCN(CC)C(=O)C1CCN(c2nnc(C)c3c(C)n(-c4ccc(Cl)cc4)nc23)CC1
 : x | 6%[46.1 µM] | -0.9% | x | x | 1% | x | -3%
Cc1cccc(-c2noc(-c3ccc(F)cc3)n2)c1
 : -7% | u | 3.0% | 3% | -13% | u | -13% | 24%
COc1ccccc1N1CCN(S(=O)(=O)CCNC(=O)c2ccccc2Br)CC1
 : 6% | u | x | 0%[46.1 µM] | 6% | x | 5% | -14%
CCC1CN2CCc3cc(OC)c(OC)cc3C2CC1CC1NCCc2c1[nH]c1ccc(O)cc21 (centres undefined)
 : x | 0.5µM* | x | 0.22µM* | -25% | x | x | u
c1ccc(Cn2nnnc2-c2ccco2)cc1
 : 3% | 9% | 2.5% | 0% | -3% | -1% | -3% | -6%
O=C(NCc1ccc(F)cc1)c1ccc2c(c1)nnn2C1CCCC1
 : x | -6%[46.1 µM] | -3.0% | x | x | 11% | x | -2%
Nc1c(-c2ccccc2)c(CSc2nc3ccccc3[nH]2)nn1-c1ccc(C(=O)O)cc1
 : 2% | x | -4.8% | -5% | -8% | 1% | 19% | -14%
Cc1cccc(C)c1NC(=S)N(C)CCc1ccccn1
 : 2% | 1% | -1.0% | 18% | -12% | 6% | 3% | -18%
COCCNC(=O)C(c1ccccc1C)N(CCOC)C(=O)Cn1nnc2ccccc21 (centres undefined)
 : -3% | u | 1.6% | -7% | 2% | 3% | -4% | 14%
O=C(CSc1n[nH]c(-c2ccncc2)n1)Nc1ccccc1C(F)(F)F
 : 1% | 0%[46.1 µM] | x | 7%[46.1 µM] | -4% | x | 6% | 16%
O=C1OC(Nc2ccc(F)c([N+](=O)[O-])c2)c2ccccc21 (centres undefined)
 : 0% | u | x | u | -2% | x | 3% | -6%
O=C(NCc1ccccn1)c1cccc(NS(=O)(=O)c2cccc(F)c2)c1
 : -1% | -10% | -2.1% | 14% | -5% | 9% | -6% | 67%[activator]
CCOc1ccc(S(=O)(=O)NCCC(=O)N2CC(C)CC(C)C2)cc1 (centres undefined)
 : -3% | -17% | x | 0%[46.1 µM] | 12% | x | x | -4%
CCOC(=O)c1ccc(COc2nc3ccccc3nc2-c2ccccc2NC(C)=O)o1
 : -8% | u | -0.4% | -15% | 0% | 11% | u | -10%
CCOc1cc(CN2CCN(CCc3ccccc3)C(CCO)C2)ccc1OC (centres undefined)
 : 0% | u | x | u | 3% | x | -2% | -1%
Cc1cccc(C2=N/C(=C\c3cccnc3)C(=O)O2)c1
 : -2% | -3% | -16% | 1% | -7% | -14% | -8% | 8%
COc1cc(C(=O)Nn2c(C)nc3ccccc3c2=O)cc(OC)c1OC
 : -3% | 11% | x | 8% | 8% | x | -2% | -5%
O=C(CS(=O)CC(=O)N(c1cccc(F)c1)C(C(=O)NC1CCCCC1)c1ccco1)Nc1ccc(F)cc1 (centres undefined)
 : -12% | -23% | 0.5% | -15% | 20% | -8% | -1% | -18%
COc1ncnc2c1oc1nc(CC(C)C)c3c(c12)CCCC3
 : -2% | u | -2.8% | 1% | -4% | u | 11% | u
CCCc1[nH]nc2c1C(c1ccc(O)c(OC)c1)C(C#N)=C(N)O2 (centres undefined)
 : 10% | 11% | 1.7% | -1% | 11% | 8% | 0% | u
CCC(C)(C)n1nnnc1C(C(C)C)N(Cc1ccco1)Cc1cc2cc3c(cc2[nH]c1=O)OCO3 (centres undefined)
 : -1% | 2% | -5.4% | 16µM* | -4% | 21% | -4% | u
O=C(COn1nnc2ccc(Cl)cc21)NC1CCS(=O)(=O)C1 (centres undefined)
 : -2% | 15% | x | u | 2% | x | x | -17%
CCCn1c(CCNC(=O)c2cccs2)nc2ccccc21
 : -5% | x | 16µM* | x | -9% | 15% | -10% | 0%
Cc1ccc(NC(=O)c2cc(S(=O)(=O)NCCC3=CCCCC3)ccc2F)cc1F
 : 17% | u | 2.5%&-9.8% | u | -8% | 2%&-5% | 6% | u
O=C(Cn1nnc2c(cnn2-c2ccccc2)c1=O)NCc1cccs1
 : 6% | -4% | -1.6% | u | 25% | -26% | 5% | 17%

Only SARS PLpro yeast, Cruzain inh noDet and Marburg entry inh (3 entries from above):
| compound | SARS PLpro yeast | Cruzain inh noDet | Marburg entry inh |
| --- | --- | --- | --- |
| O=C(COn1nnc2ccc(Cl)cc21)NC1CCS(=O)(=O)C1 (centres undefined) | -2% | x | u |
| O=C(Cn1nnc2c(cnn2-c2ccccc2)c1=O)NCc1cccs1 | 6% | -26% | u |
| CCCc1[nH]nc2c1C(c1ccc(O)c(OC)c1)C(C#N)=C(N)O2 (centres undefined) | 10% | 8% | -1% |

Other results:
The line under a structure holds: SARS PLpro yeast | LASV entry inh | Cruzain inh Det | Marburg entry inh | RE007 growth inh | Cruzain inh noDet | NS1 inh | 2A StopGo
C=CCn1c(CNC(=O)c2cccs2)nnc1SCC(=O)c1ccc(Br)cc1
 : -2% | -5% | 1.2% | 9% | -6% | 1% | 17% | -9%
O=C(/C=C\Nc1ccc(S(=O)(=O)Nc2ncccn2)cc1)c1cccc2ccccc12
 : 0% | x | x | x | 44% | x | 0% | -17%
Cc1cc(C(=O)CSc2ncccn2)c(C)n1Cc1ccco1
 : -2% | -16% | x | u | 2% | x | x | 41%[activator]
Cc1occc1-c1nnc(SCC(=O)Nc2nc(-c3ccccc3)cs2)o1
 : 2% | -24% | 8.5% | u | -16% | -11% | 9% | 0%
NC(=O)c1nnn(-c2cccc(C(F)(F)F)c2)c1-c1ccccc1
 : -2% | 4% | x | -17% | 24% | x | 2% | -10%
OC(CSc1ccccc1)CN1CCN(c2cccc(Cl)c2)CC1 (centres undefined)
 : x | x | x | 19%[46.1 µM] | 0% | x | x | -10%
COc1ccc(OCC(=O)Nc2cc(OC)cc(OC)c2)cc1
 : -5% | 8% | -1.9% | 7% | -3% | 8% | -45% | x
